# BJeLR lethal: kills HRASV12-expressing BJeLR cells; inhibition, % (test concentration not listed); AID 1554; 0.17% of 300,000 active; BJeLR (HRASV12) viability, CellTiter-Glo ATP luminescence, 48 h; reference of the scale not given here;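 active = replicate mean above 50%; inconclusive = above 50% but judged a plate artefact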;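 note: 50 nL library stock added to about 25 µL; numbers are from one replicate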
# Autofluor counter: compound fluorescence in toxin protease inhibitor counterscreen; compound autofluorescence counterscreen, microsphere flow cytometry; hits give high values; fluorescence intensity (concentration not given with the values); 3.1% of 360,000 active; AID 624483;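 active = at least 3 SD above the mean of all compounds, about 16000 in these data; inconclusive = too few beads counted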;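 note: 100 nL of 1 mM stock went into each well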
# ugtP null kill: kills S. aureus RN4220 lacking UgtP. 0.54% of 330,000 active. growth inhibition, % (test concentration not listed). AID 1259309. S. aureus RN4220 ugtP deletion, OD600 growth, 16 h; some inactives read as strong as hits;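 active = z-score under -3 and OD600 up to 0.15 on both plates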;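 note: plate controls were untreated wells for no effect and antibiotic for full effect; wells of about 80 µL received 100 nL stock; the first replicate is given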
# PrP 5UTR inh: inhibition of PrP 5' UTR reporter expression; 0.35% of 340,000 active; AID 488862; inhibition, % (concentration not given with the values); cell-based PrP 5' UTR mRNA reporter, plate reader;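 active = every replicate at 50% or more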;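 note: 0 = median of the neutral control wells; tested in H4 reporter cells; numbers are from one replicate; inactives centre near -14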
# Sa RN4220 lethal: kills Staphylococcus aureus RN4220; S. aureus RN4220 growth, OD600, 16 h; inhibition, % (no concentration beside the values); 0.33% of 330,000 active; AID 1259311;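 active = z-score of -3 or lower and OD600 up to 0.18 on both plates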;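 note: plate controls were untreated cells for no effect and reference antibiotic for full effect; stock transfer was 100 nL into about 80 µL; one replicate is shown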
# Mtb hypoxia inh: Mtb hypoxia fluorescent reporter inhibition; M. tuberculosis hypoxia-regulated fluorescent reporter, fluorescence; fluorescence inhibition, % (concentration not given with the values); 0.1% of 300,000 active; AID 1159583;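 active = 35 to 45% if threefold the growth effect, above 45% if 1.5-fold the growth effect; inactive = the rest, general growth blockers included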;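 note: wells of about 50 µL received 100 nL stock; 0% = vehicle wells and 100% = reference inhibitor wells; whole bacteria with a GFP reporter of the hypoxia response; strong numbers were not always called active; many hits fall short of the cut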
# Mtb hypoxia inh growth: also measured in Mtb hypoxia inh; calls as there; growth inhibition, %; measured here: M. tuberculosis growth (absorbance);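 0% = vehicle and 100% = reference antibiotic; read after six days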
# Starred values were filed as active, the others as inactive; u = inconclusive; x = no result given. An unsorted share of the library; about 3.9% have a hit in one of these screens.
[1] COc1ccc(C(=O)NC(=S)Nc2ccc(S(=O)(=O)Nc3cc(OC)nc(OC)n3)cc2)cc1
[2] C=CCN(c1ccccc1)S(=O)(=O)c1cccc(C(=O)Nc2nc3ccccc3[nH]2)c1
[3] CC1COc2ccccc2N1C(=O)c1ccc(Cl)nc1 (stereo not drawn)
[4] COc1ccccc1N1C(=O)C2C3C=CC(C3)C2C1=O (stereo not drawn)
[5] C/C(N)=C(/C#N)C(=O)COc1ncnc2ccc(Br)cc12
[6] CCNC(=O)NCCNC(=O)c1cc(OCC(F)(F)F)ccc1OCC(F)(F)F
[7] COCc1cc(=O)[nH]c(/N=C(\N)Nc2cccc(Cl)c2)n1
[8] CCc1ccccc1NC(=O)CN(C)C(=O)c1cc(C2CC2)nn1-c1ccccc1

assay / compound	1	2	3	4	5	6	7	8
BJeLR lethal	-5	-8	3	-3	-2	1	12	x
Autofluor counter	3342	2082	3435	3134	9532	4065	3713	u
ugtP null kill	-6	9	7	-2	2	5	x	14
PrP 5UTR inh	-2	-3	-24	-14	1	-10	-29	-2
Sa RN4220 lethal	13	2.6	4.3	7.2	0.6	3.9	x	7.6
Mtb hypoxia inh	4	2	7	10	4	12	x	5
Mtb hypoxia inh growth	0	-5	7	0	8	5	x	-4

[9] O=S(=O)(O)c1ccc(N2N=C(c3ccccc3)CC2c2ccccc2)cc1 (stereo not drawn)
[10] CSc1nc(NCC(C)C)nc(N2CCOCC2)n1
[11] Cc1ccc(C(=O)Nc2cccnc2)cc1S(=O)(=O)N1CCCCCC1
[12] Cc1ccc(C(=O)CSc2nc3cc(S(=O)(=O)N4CCOCC4)ccc3o2)cc1
[13] COC(=O)C1=CN(Cc2ccc(OC)cc2)C=C(C(=O)OC)C1c1cccs1
[14] CC(=O)Nc1ccc(NC2=Nc3ccccc3N3C2=Nc2c(c(C)nn2-c2ccccc2)C3c2ccccc2)cc1 (stereo not drawn)
[15] CCCCn1c(=O)cc(O)c2ccccc21
[16] COc1ccc(C(=O)O/N=C(\N)c2ccccn2)cc1

assay / compound	9	10	11	12	13	14	15	16
BJeLR lethal	4	2	2	4	5	7	-2	-1
Autofluor counter	2621	9103	5975	3910	4690	3420	6031	5852
ugtP null kill	-5	-15	0	11	9	-8	8	x
PrP 5UTR inh	-17	-22	1	1	-66	8	-14	88*
Sa RN4220 lethal	0.4	7.1	1.6	-1.9	-0.5	-2.7	0.1	x
Mtb hypoxia inh	4	5	0	x	4	x	-16	x
Mtb hypoxia inh growth	4	12	12	x	2	x	-2	x

# Single records, from the list above. Order of values: BJeLR lethal, Autofluor counter, ugtP null kill, PrP 5UTR inh, Sa RN4220 lethal, Mtb hypoxia inh, Mtb hypoxia inh growth
# CCCCn1c(=O)cc(O)c2ccccc21 in the list: -2, 6031, 8, -14, 0.1, -16, -2
# Cc1ccc(C(=O)Nc2cccnc2)cc1S(=O)(=O)N1CCCCCC1 in the list: 2, 5975, 0, 1, 1.6, 0, 12
# COc1ccc(C(=O)O/N=C(\N)c2ccccn2)cc1 in the list: -1, 5852, x, 88*, x, x, x

# Additional results
[17] CC(C)(C)c1ccccc1OCC(=O)Nc1ncn[nH]1
[18] CCN(CC)C(=O)N1CCN(S(=O)(=O)c2ccc(C)cc2)CC1
[19] O=C1c2c(Br)c(Br)c(Br)c(Br)c2C(=O)N1c1ccccn1
[20] CCOCCCNC(=O)CN1CCN(Cc2ccccc2C)C1=O
[21] O=C(CN1CCN(c2ccc(O)cc2)CC1)NC(=O)NCc1ccco1
[22] CCCn1c(=O)c(C(=O)NCc2ccccn2)c(O)c2ccccc21
[23] NC(=O)C1(N2CCCCC2)CCN(Cc2nc(-c3cccs3)no2)CC1
[24] COC(=O)C1=C(O)/C(=C\c2sccc2C)N=C1C

assay / compound	17	18	19	20	21	22	23	24
BJeLR lethal	-12	-4	-1	8	-2	x	-1	-1
Autofluor counter	9364	10528	2981	4231	2595	3508	5932	7208
ugtP null kill	-3	1	-1	5	10	-3	17	x
PrP 5UTR inh	-20	-30	-21	-16	-11	-17	-19	-12
Sa RN4220 lethal	1.2	1.7	3.0	3.3	3.7	-0.5	3.4	x
Mtb hypoxia inh	2	8	19	-1	1	x	9	x
Mtb hypoxia inh growth	15	8	2	-8	-4	x	-9	x

[25] CCCc1ccccc1OCCNS(=O)(=O)c1cc2c(cc1C)OCC(=O)N2
[26] O=[N+]([O-])c1ccc(Cl)c(/C=N/N2CCN(c3ccccc3)CC2)c1
[27] Cc1cc(C(F)F)n2ncc(C(=O)NCc3ccccc3F)c2n1
[28] COc1ccccc1NC(=O)Oc1cccc(OC(=O)c2ccccc2)c1
[29] COc1ccc(-n2ccnc2SCC(=O)NC2CCCC2)cc1
[30] COCCNC(=O)C(c1ccc(O)cc1)N(C(=O)CCC(=O)Nc1nccs1)c1cccc(C)c1 (stereo not drawn)
[31] Cc1ccc(/C=N/NC(=O)c2nnn(-c3nonc3N)c2CN(C)c2ccccc2)s1
[32] CCC(C)(C)NC(=O)CN(C(=O)CCC(=O)Nc1cc(C)ccn1)c1ccc2c(c1)OCO2

assay / compound	25	26	27	28	29	30	31	32
BJeLR lethal	0	12	-4	-4	x	-1	8	x
Autofluor counter	5802	10681	2503	3107	3770	4817	5053	3046
ugtP null kill	-7	x	5	0	2	13	x	9
PrP 5UTR inh	-4	-18	3	-13	1	-17	-27	-2
Sa RN4220 lethal	2.0	x	2.0	7.8	3.0	5.7	x	6.6
Mtb hypoxia inh	-2	x	1	12	7	-8	x	x
Mtb hypoxia inh growth	14	x	6	4	-1	-7	x	x

[33] Cc1ccccc1CSc1nn2c(=O)c(C)nnc2s1
[34] Cc1ccc(CC(=O)Nc2cc([N+](=O)[O-])ccc2F)cc1
[35] Cc1cc(NS(=O)(=O)c2ccc(NC(=O)CN3C(=O)c4ccccc4C3=O)cc2)nc(C)n1
[36] C[C@H](NC(=O)c1cc2c(cn1)[nH]c1ccccc12)C(=O)O
[37] O=C(O)c1ccn[nH]1
[38] CCOC(=O)c1ccc2[nH]c(C)c(CN3CCN(C)CC3)c(=O)c2c1
[39] Cc1cccc(CCNC(=O)C2CCN(S(=O)(=O)c3c(C)noc3C)CC2)c1
[40] Cc1cccc(/C(N)=N/OC(=O)N2c3ccccc3Sc3ccccc32)c1

assay / compound	33	34	35	36	37	38	39	40
BJeLR lethal	6	3	2	8	1	x	-1	-1
Autofluor counter	4606	2463	16048	4039	4183	4764	10471	4871
ugtP null kill	11	0	8	x	3	2	-1	-3
PrP 5UTR inh	-11	-4	-14	-18	x	-7	-17	-18
Sa RN4220 lethal	2.6	7.6	4.4	x	4.1	-3.3	3.1	2.1
Mtb hypoxia inh	6	13	-1	x	x	x	12	x
Mtb hypoxia inh growth	3	0	-2	x	x	x	18	x

[41] Cc1ccc(C(=O)NCCc2ccccc2)cc1S(=O)(=O)N1CCOCC1
[42] CCC(C)(C)C1CCC2(CC1)NC(=O)N(CC(=O)N1CCN(S(=O)(=O)c3cc(C)ccc3C)CC1)C2=O (stereo not drawn)
[43] Cc1ccc2nc(SCC(=O)N3CCCCC3)nc(=O)n2c1
[44] COc1cc(O)c(C(CC(=O)N2CCOCC2)c2ccc(N(C)C)cc2)c(OC)c1 (stereo not drawn)
[45] Cc1cccc(N/N=C/c2c(O)[nH]c(=S)[nH]c2=O)c1
[46] O=C(c1ccccc1)C1(c2ccccc2)OC1c1ccccc1 (stereo not drawn)
[47] Cc1ccc(-c2ccc(/C=N/N=C3/NC(=O)C(CC(=O)O)S3)o2)c([N+](=O)[O-])c1 (stereo not drawn)
[48] COC(=O)c1sccc1NC(=O)NC1CCCCC1

assay / compound	41	42	43	44	45	46	47	48
BJeLR lethal	x	-3	5	7	-2	x	3	-7
Autofluor counter	3482	5776	u	4175	3994	2856	9020	5833
ugtP null kill	2	13	2	5	x	32	x	3
PrP 5UTR inh	-9	-14	-14	-14	-5	-18	-20	-23
Sa RN4220 lethal	-0.4	4.7	3.5	3.5	x	-3.1	x	3.2
Mtb hypoxia inh	12	-1	5	12	x	8	x	2
Mtb hypoxia inh growth	9	-4	6	10	x	8	x	12

[49] Cc1ccc(C=NNC(=O)CN2CCN(Cc3ccccc3)CC2)o1
[50] Cc1nc2cc(Cl)c(Cl)cc2n1CCCO
[51] CC(=O)N(Cc1ccc2c(c1)OCO2)C1CC(=O)N(CCc2ccccc2)C1=O (stereo not drawn)
[52] OCC1OC(n2cnc3c(NC4CCCC4)nc(Cl)nc32)C(O)C1O (stereo not drawn)
[53] COc1cc(/C=N/Nc2nn3cnnc3c3ccccc23)cc(OC)c1OC
[54] CCc1ccc(-c2ccc(C(=O)O)cc2)nc1
[55] COCC(C)NC(=O)c1cc(-c2ccc(OC)c(OC)c2)on1 (stereo not drawn)
[56] CSC1=NC(NCCCO)c2c(sc3c2CC(C)(C)OC3)N1 (stereo not drawn)

assay / compound	49	50	51	52	53	54	55	56
BJeLR lethal	x	-8	-5	x	11	-2	-28	-14
Autofluor counter	x	7188	2988	x	3242	3041	16079	4487
ugtP null kill	7	3	2	-3	x	2	0	-1
PrP 5UTR inh	x	x	-9	x	-12	-46	-1	-5
Sa RN4220 lethal	2.4	4.1	14	-0.1	x	3.7	1.7	-0.2
Mtb hypoxia inh	4	20	0	5	x	21	4	-2
Mtb hypoxia inh growth	4	6	10	3	x	10	4	23

[57] Cc1nnc(NC(=O)c2ccncc2)s1
[58] O=[N+]([O-])c1cccc(-c2n[nH]c(=S)n2-c2ccccc2)c1
[59] CN1CCN(c2ccc(Nc3ccnc4cc(Cl)ccc34)cc2)CC1
[60] CCOc1ccccc1-n1c(N)c(C(N)=O)sc1=S
[61] O=C(Cc1ccc(Cl)cc1)NCc1ccccc1Cl
[62] COc1cc2c(cc1OC)C1C(C(=O)Nc3ccccc3N3CCN(C)CC3)c3ccccc3C(=O)N1CC2 (stereo not drawn)
[63] CC1CCCCC1NC(=O)CN1CCN(S(=O)(=O)c2ccc(Br)s2)CC1 (stereo not drawn)
[64] COC1C(OC(N)=O)C(O)C(Oc2ccc3c(O)c(NC(=O)c4ccc(O)c(CC=C(C)C)c4)c(=O)oc3c2C)OC1(C)C (stereo not drawn)

assay / compound	57	58	59	60	61	62	63	64
BJeLR lethal	2	-7	17	-1	-9	1	x	x
Autofluor counter	2502	x	3961	16402*	4468	5202	3064	x
ugtP null kill	-3	11	x	12	-1	-1	0	99*
PrP 5UTR inh	-19	x	1	11	-35	18	-14	x
Sa RN4220 lethal	2.0	2.6	x	4.4	0.6	2.1	4.6	100*
Mtb hypoxia inh	x	11	x	4	-2	16	4	x
Mtb hypoxia inh growth	x	-1	x	-1	-1	8	-4	x

[65] Cc1cccc(NC(=O)c2ccc3nsnc3c2)c1C
[66] O=C(NNc1nc(Nc2ccccc2)nc(N2CCOCC2)n1)Nc1ccc(Cl)cc1
[67] COc1ccc(S(=O)(=O)Nc2ccc3c(c2)C(=O)N(C(C)CO)CC(C)C(CN(C)C(=O)Nc2ccc4c(c2)OCO4)O3)cc1 (stereo not drawn)
[68] CC1CCCC(C)N1C(=O)COC(=O)c1ccc([N+](=O)[O-])o1 (stereo not drawn)

assay / compound	65	66	67	68
BJeLR lethal	-11	-6	x	x
Autofluor counter	2564	3551	x	3714
ugtP null kill	4	-7	0	15
PrP 5UTR inh	-25	-14	x	-14
Sa RN4220 lethal	2.3	3.0	4.6	8.0
Mtb hypoxia inh	13	0	12	x
Mtb hypoxia inh growth	9	3	8	x

# Of the compounds above, eight contain a Cl atom:
[3] CC1COc2ccccc2N1C(=O)c1ccc(Cl)nc1 (stereo not drawn)
[7] COCc1cc(=O)[nH]c(/N=C(\N)Nc2cccc(Cl)c2)n1
[26] O=[N+]([O-])c1ccc(Cl)c(/C=N/N2CCN(c3ccccc3)CC2)c1
[50] Cc1nc2cc(Cl)c(Cl)cc2n1CCCO
[52] OCC1OC(n2cnc3c(NC4CCCC4)nc(Cl)nc32)C(O)C1O (stereo not drawn)
[59] CN1CCN(c2ccc(Nc3ccnc4cc(Cl)ccc34)cc2)CC1
[61] O=C(Cc1ccc(Cl)cc1)NCc1ccccc1Cl
[66] O=C(NNc1nc(Nc2ccccc2)nc(N2CCOCC2)n1)Nc1ccc(Cl)cc1

assay / compound	3	7	26	50	52	59	61	66
BJeLR lethal	3	12	12	-8	x	17	-9	-6
Autofluor counter	3435	3713	10681	7188	x	3961	4468	3551
ugtP null kill	7	x	x	3	-3	x	-1	-7
PrP 5UTR inh	-24	-29	-18	x	x	1	-35	-14
Sa RN4220 lethal	4.3	x	x	4.1	-0.1	x	0.6	3.0
Mtb hypoxia inh	7	x	x	20	5	x	-2	0
Mtb hypoxia inh growth	7	x	x	6	3	x	-1	3

# Screening results (PubChem)
